TRPV1 PAM: human TRPV1 potentiation. TRPV1-expressing cells, Fluo-8 calcium influx, capsaicin EC20 potentiation; host cell line not named in the record; control for the full effect not named in the record. potentiation, % at 8.33 µM. AID 540277. actives 0.02% (n = 320,000). Q8NER1; active means potentiation above 80%; inconclusive means 30% to 80%; inactive means below 30%; further: 0% is about no effect
Target sequence (Q8NER1 whole entry, looked up): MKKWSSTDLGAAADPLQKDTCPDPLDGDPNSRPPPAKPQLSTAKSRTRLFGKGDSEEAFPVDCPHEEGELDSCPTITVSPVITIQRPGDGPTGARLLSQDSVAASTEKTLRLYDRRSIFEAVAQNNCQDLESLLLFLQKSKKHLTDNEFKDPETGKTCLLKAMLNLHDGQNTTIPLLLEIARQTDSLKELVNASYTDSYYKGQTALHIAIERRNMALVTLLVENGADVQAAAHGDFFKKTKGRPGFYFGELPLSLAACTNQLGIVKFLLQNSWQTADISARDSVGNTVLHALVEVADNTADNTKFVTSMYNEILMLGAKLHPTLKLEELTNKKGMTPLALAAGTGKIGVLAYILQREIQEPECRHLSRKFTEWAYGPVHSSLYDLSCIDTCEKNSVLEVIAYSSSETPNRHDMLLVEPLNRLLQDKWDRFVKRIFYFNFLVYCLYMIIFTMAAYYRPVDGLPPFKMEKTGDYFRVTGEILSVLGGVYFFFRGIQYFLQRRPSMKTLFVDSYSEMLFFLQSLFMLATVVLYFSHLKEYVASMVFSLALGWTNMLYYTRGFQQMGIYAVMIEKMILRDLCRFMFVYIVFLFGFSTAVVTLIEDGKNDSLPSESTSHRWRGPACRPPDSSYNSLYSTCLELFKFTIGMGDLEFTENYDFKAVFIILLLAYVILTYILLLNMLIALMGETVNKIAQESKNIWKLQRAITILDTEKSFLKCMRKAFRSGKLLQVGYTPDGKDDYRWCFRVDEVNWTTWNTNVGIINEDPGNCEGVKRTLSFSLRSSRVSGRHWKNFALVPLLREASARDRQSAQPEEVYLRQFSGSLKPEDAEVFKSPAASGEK
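Fluo-8 calcium influx in TRPV1-expressing cells, kinetic read (ex 480/em 520 nm). Compound added and read 3 min for agonist activity, followed by capsaicin at EC20 final and 2 min further read for enhancement.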
* = called active by the depositor; i = inactive; ? = inconclusive. A portion of the library; rates above refer to the full screens.

Structure	TRPV1 PAM
CCCCOc1cccc(C2C(C(=O)c3ccc(C)o3)=C(O)C(=O)N2Cc2ccco2)c1 (stereo not given)	12
CCOC(=O)c1cc2c(=O)n3cc(C)ccc3nc2n(Cc2cccnc2)c1=N	-3
Cc1ccc2cc(CN(Cc3cccs3)Cc3nnnn3C(C)(C)C)c3nnnn3c2c1	-3
Oc1ccc(N=C/C=C/c2ccc(Br)cc2)cc1-c1nc2ccccc2s1	-6
O=C(CSCc1ccco1)c1ccc(Cl)s1	0
CCn1c(SCC(=O)NCc2ccco2)nnc1-c1ccncc1	8
CCOC(=O)Cc1nc2ccccc2o1	3
Cc1cccc2cc(CN(Cc3ccco3)C(=O)N3CCCC3)c(=O)[nH]c12	0

Four consecutive compounds already listed:
Structure	TRPV1 PAM
CCCCOc1cccc(C2C(C(=O)c3ccc(C)o3)=C(O)C(=O)N2Cc2ccco2)c1 (stereo not given)	12
CCOC(=O)c1cc2c(=O)n3cc(C)ccc3nc2n(Cc2cccnc2)c1=N	-3
Cc1ccc2cc(CN(Cc3cccs3)Cc3nnnn3C(C)(C)C)c3nnnn3c2c1	-3
Oc1ccc(N=C/C=C/c2ccc(Br)cc2)cc1-c1nc2ccccc2s1	-6

Continuation.
Structure	TRPV1 PAM
COCc1cc(C)nc(OCC(=O)N/N=C/c2ccc(-c3cccc([N+](=O)[O-])c3)o2)c1C#N	-2
CCC(C(=O)OCC(=O)Nc1cccc(S(=O)(=O)NC2=NCCCCC2)c1)c1ccccc1 (stereo not given)	0
CCCOc1ccc(/C(O)=C2/C(=O)C(=O)N(CCOC)C2c2cccnc2)cc1 (stereo not given)	-1
O=C(Nc1nc2ccc([N+](=O)[O-])cc2s1)c1ccco1	1
Fc1ccc2[nH]c3c(N4CCN(C5CCCCC5)CC4)ncnc3c2c1	-12
CC(C)CC1NC(=O)c2ccccc2-n2c1nc1cc(F)ccc1c2=O (stereo not given)	3
Cc1ccc(C2CC(c3cccs3)=NN2C(=O)CSc2nc(=O)n3ccc(C)cc3n2)cc1 (stereo not given)	-17
Cn1c(=O)c(C(=O)COC(=O)c2cc(C(F)(F)F)nc3ccccc23)c(N)n(Cc2ccccc2)c1=O	-1
O=[N+]([O-])c1ccc(Cl)c(/C=N/n2c(-c3cccnc3)n[nH]c2=S)c1	-6
Cc1ccc(C(=O)COC(=O)c2cnccn2)cc1C	-16
Cc1oc2c(c(C)cc3oc(=O)c(CC(=O)NCC(=O)NCC(=O)O)c(C)c32)c1C	4
O=C(C1=C[C@H](c2ccccc2)C[C@H](OCc2ccc(CO)cc2)O1)N1CCCCCCC1	5
CCCCNC(=O)C(c1ccc(-c2ccccc2)cc1)N(CCN1CCOCC1)C(=O)CCCCCN1C(=O)NC(c2ccc([N+](=O)[O-])cc2)C(C(=O)OCc2ccccc2)=C1C (stereo not given)	13
CNCCCOc1ccc(C(C)(C)c2ccccc2)cc1	-9
COc1ccc(OCC(=O)NNC(=S)NC(=O)C2CCCCC2)cc1	12
COc1ccc(N(C)C(=S)Oc2ccc(C(=O)Nc3ccccc3)cc2)cc1	15
Cc1nc(SCc2nnc(-c3ccc(Cl)cc3)o2)c2c3c(sc2n1)CCC3	18
CC(C)c1ccc(NC(=O)CSc2nc3c(c(=O)[nH]2)CCC3)cc1	13
C=CC[C@@H]1C=C[C@H](O/N=C/c2ccc(C(=O)N3[C@H](c4ccc(C)cc4)[C@@H](C)CC[C@H]3C(=O)OC)cc2)[C@@H](CO)O1	1
CC(=O)c1cccc(NC(=O)Nc2cc3sccc3n2C)c1	14
Cc1cc2c(c(=O)o1)C1O[C@](CCCCN3C(=O)c4ccccc4C3=O)(Cc3cc(C#N)ccc31)O2	i
CCOC(=O)/C(C(=O)Nc1ccc(Cl)cc1Cl)=C1/NC(C)(C)Cc2ccccc21	-9
COCCN1C(=S)N[C@@H](c2ccccc2)C(C(=O)OC)=C1C	12
Cc1ccc2nc3n(c(=O)c2c1)-c1ccc(Cl)cc1C(=O)NC3Cc1ccccc1 (stereo not given)	5
Cc1cccc(N(CC(=O)NCCSc2nc3ccccc3s2)S(=O)(=O)c2ccccc2)c1	5
CCCCCCN(C(=O)CCCCCN1C(=O)NC(c2ccc(-c3ccccc3)cc2)C(C(=O)OCc2ccccc2)=C1C)C(C(=O)NCCCC)c1cccc(C(=O)OC)c1 (stereo not given)	23
CC(C)(C)n1nc2c(c1NC(=O)Cc1cccs1)CSC2	3
COc1ccc(OCc2nnc(SCC(=O)c3c(N)n(C)c(=O)n(C)c3=O)n2-c2ccccc2F)cc1	11
O=C(NC(=O)c1ccccc1)Nc1ccccn1	-6
O=C(NCCc1ccccc1)c1ccccc1NC(=O)C1CCCCC1C(=O)O (stereo not given)	3
Cc1ccc(S(=O)(=O)Nc2ccc(-c3nc4cc(NS(=O)(=O)c5ccc(C)cc5)ccc4o3)cc2)cc1	5
O=C(CSc1nnc(-c2ccc(Cl)s2)o1)N1CCc2ccccc21	8
Cc1sc2nc3n(c(=O)c2c1C)Cc1ccccc1-3	-19
O=C(COC(=O)CC(c1ccccc1)c1ccccc1)Nc1ccc(F)c(F)c1	-6
O=C(O)CCc1cc(I)c(Oc2ccc(O)c(I)c2)c(I)c1	8
Cc1cccc(-n2c(N)cc(=O)nc2SC(C)C(=O)NC2CCCCC2)c1 (stereo not given)	-7
Cc1ccc2nc(NC3=NCN(C4CCCCC4)CN3)nc(C)c2c1	7
O=C(O)/C(=C/c1ccco1)c1ccccc1	-2
Cc1cccc(N=Nc2c(C)[nH]n(C(N)=S)c2=O)c1C	-4
Cc1ccc(C)c(N2CCN(S(=O)(=O)c3ccc4c(c3)CCC(=O)N4)CC2)c1	-24
Cc1ccc2nc(-c3ccccn3)cc(C(=O)NC3CCN(C)CC3)c2c1	4
Nc1c2c(nc3ccc(Br)cc13)N(C1CCCCC1)CC2	-7
Cc1cccc(N2CCN(C(=O)c3ccc4c(c3)NC(=O)C(CSCc3ccc(F)cc3)N4)CC2C)c1 (stereo not given)	5
CCCCN1C(=O)/C(=C/C=C2\N(C)c3ccccc3C2(C)C)SC1=S	13
COC(=O)Nc1nc2ccc(C(=O)c3ccc(F)cc3)cc2[nH]1	2
Cc1c2c(nc3nc4ccccc4n13)CCCC2=O	-17
CCN1C(=O)[C@H]2[C@H]3[C@H](O)[C@H](O)C/C(=N\OC[C@@H](C)[C@H](OCc4ccccc4)C(C)C)[C@@H]3CC[C@H]2C1=O	6
Cc1cccc(C(=O)Nc2ccc(C)c(OC(=O)c3cccc(C)c3)c2)c1	14
CC(=O)NC(C)c1cc(F)c2cccnc2c1O (stereo not given)	4
O=C(Cc1ccc(Nc2nc(=S)[nH]c3ccccc23)cc1)NC1CCCCC1	25
COc1cc(-c2nc(-c3ccc(-c4ccccc4)nc3OC)no2)cc(OC)c1OC	-1
C#CCOCCOCCOCCNc1nc(N2CCN(C(=O)[C@H](CCC(=O)O)n3cc(C(N)Cc4ccc(O)cc4)nn3)CC2)nc(N2CCN(C(=O)[C@H](CCCCN)n3cc(C(N)[C@H](C)CC)nn3)CC2)n1 (stereo not given in full)	-6
CCOc1cc(-c2ccc3c(c2)OCO3)cc(=O)c2c(C)oc(C)c12	-27
COC(=O)[C@@H](N)Cc1ccc(O)cc1	8
O=C(COC(=O)/C=C/c1ccc(Br)o1)Nc1ccc2[nH]c(=O)[nH]c2c1	0
Cc1ccc(NC(=S)NC(=O)c2sc3ccccc3c2Cl)c(C(=O)O)c1	2

(further entries)
Structure	TRPV1 PAM
Cc1cc(NNC(=O)Nc2cccc(Cl)c2)nc2c1c(C)nn2C	-7
O=C1OCC2OC(O)C(O)C(O)C2OC(=O)c2cc(O)c(O)c(O)c2-c2c(O)c(O)c3oc(=O)c4c(c(O)c(O)c5oc(=O)c2c3c54)-c2c1cc(O)c(O)c2O (stereo not given)	-34
O=C(N/N=C/c1ccc2nccnc2c1)c1ccccc1O	-12
NCc1ccc(-c2nc3ccccc3o2)cc1	5
C=CCN1C(=O)N/C(=C/c2ccc(N3CCOCC3)o2)C1=O	2
CCOC(=O)c1[nH]c(C)c(C(=O)O)c1C	15
C=CCNC(=O)c1cc2c(=O)n3cc(C)ccc3nc2nc1NCC1CCCO1 (stereo not given)	11
Cc1n[nH]c(=S)c2nn(-c3ccccc3)c(C)c12	3
COc1ccc(C2c3c(ccc4ccccc34)Oc3ncn4nc(Cc5ccc(OC)c(OC)c5)nc4c32)cc1 (stereo not given)	-4
COc1ccc(S(=O)(=O)N2CCCCCC2)cc1C(=O)OCC(=O)Nc1cc(C)on1	5
COc1ccc2cc(CN(CC3COCCO3)S(=O)(=O)c3c(C)cc(C)cc3C)c(=O)[nH]c2c1 (stereo not given)	-1
Cc1ccc(S(=O)(=O)NN2C(=O)/C(=C/c3cccn3C)SC2=S)cc1	-4
c1ccc(C2CCC(N3CCC(N4CCCCC4)CC3)CC2)cc1 (stereo not given)	22
COc1ccc(CSc2nnc3n(C)c(=O)c4c5c(sc4n23)CCCC5)cc1	15
CCn1c2ccccc2c2cc(NC(=O)Nc3ccc([N+](=O)[O-])cc3C)ccc21	-12
CCCN1C(=O)/C(=c2\s/c(=C3\C=Cc4ccccc4N3CC)c(=O)n2-c2ccccc2)SC1=S	14
CC(c1ccccc1)n1c(NCCCn2ccnc2)nc2c1c(=O)[nH]c(=O)n2C (stereo not given)	0
Brc1cc2c(cc1/C=N/Nc1nc(N3CCCCC3)nc(N3CCCCC3)n1)OCO2	6
CCCn1c(SCC(=O)NC(=O)NCc2ccco2)n[nH]c1=O	0
CNC(=S)N(Cc1ccc(OC)cc1)C1CC(=O)N(c2ccc(C(=O)OC)cc2)C1=O (stereo not given)	2
O=c1[nH]c2cc3c(cc2cc1C(c1nnnn1CC1CCCO1)N1CCCCCC1)OCO3 (stereo not given)	-4
Cc1ccc(S(=O)(=O)/C(C#N)=C/c2c(Oc3ccc(Cl)cc3)nc3c(C)cccn3c2=O)cc1	-1
COc1ccccc1/C=N/N1C(=O)C(CC(=O)Nc2ccc([N+](=O)[O-])cc2OC)SC1=Nc1cccc(C)c1C (stereo not given)	-1
O=C(NCc1ccc(F)cc1)c1cc2sccc2n1Cc1ccc(F)cc1	-8
CC(=O)c1ccc(N2CCN(C(=O)c3ccc4c(Cl)c5c(nc4c3)CCCC5)CC2)cc1	-5
COc1ccc(-n2c(=S)[nH]c3cc(C(=O)Nc4ccccc4OC)ccc3c2=O)cc1	-19
FC(F)(F)c1cccc(NC(=S)NNC(=S)Nc2cccc(C(F)(F)F)c2)c1	1
CC1CCCN(c2nc3c(c(=O)[nH]c(=O)n3C)n2CCSc2ncccn2)C1 (stereo not given)	9
CCOC(=O)c1cc(C(=O)Nc2ccc(S(=O)(=O)Nc3ccc(OC)cc3)cc2)nn1C	-4
COc1cccc(N2CCN(c3ncnc4c3[nH]c3ccccc34)CC2C)c1 (stereo not given)	-5
CCn1cc(C(=O)NCc2ccc3c(c2)OCO3)c(=O)c2ccc(C)nc21	4
CCN(CC)CCNc1ncnc2c1[nH]c1ccc(OC)cc12	-2

2 entries from above, field by field.
> COc1ccc(-n2c(=S)[nH]c3cc(C(=O)Nc4ccccc4OC)ccc3c2=O)cc1
  TRPV1 PAM: -19
> CCN(CC)CCNc1ncnc2c1[nH]c1ccc(OC)cc12
  TRPV1 PAM: -2

Following part:
Structure	TRPV1 PAM
CC(=O)OCC(CCn1cnc2cnc(N)nc21)COC(C)=O	-2
CCn1c(SCC(=O)N/N=C/C=C/c2ccccc2[N+](=O)[O-])nnc1-c1ccc(Cl)cc1	7
COc1cccc(-c2nnc3sc(-c4ccc(C)cc4)nn23)c1	0
O=C(Cn1nc(C(=O)O)c2ccccc2c1=O)Nc1ccc2c(c1)C(=O)c1ccccc1C2=O	0
O=c1c2ccc([N+](=O)[O-])c3cccc(c32)c2nc3ccccc3n12	?
CC(=O)NC(Cc1ccccc1C)C(=O)NC1CCN(c2ncccc2[N+](=O)[O-])CC1 (stereo not given)	8
COc1ccccc1CNC(=O)c1cccc(-c2ccc(C)c3ccccc23)n1	1
Nc1c2c(nc3c1CCC3)CCCC2	-2
Cn1c(=O)c2c(nc(SCC(=O)N3CCc4ccccc43)n2Cc2ccccc2)n(C)c1=O	0
O=c1c2ccccc2c(C=Nc2ccc(S(=O)(=O)Nc3ncccn3)cc2)c(O)n1-c1cccc(Cl)c1	0
COc1ccc(S(=O)(=O)NC(N)=NCCc2ccc(OC)c(OC)c2)cc1	-4
CCCC[C@]12Cc3cc(OC)c(OC)cc3C(O1)C1=C(CC3(CCCCC3)OC1=O)O2	i
O=C1Nc2ccccc2C12OCCS2 (stereo not given)	10
C#CCOCCOCCOCCNc1nc(N2CCN(C(=O)[C@H](CCC(=O)O)n3cc(C(N)CO)nn3)CC2)nc(N2CCN(C(=O)[C@H](Cc3ccc(O)cc3)n3cc(C(N)CC(C)C)nn3)CC2)n1 (stereo not given in full)	6
COC(=O)c1[nH]c2ccccc2c1NC(=O)CCN1CCN(C2CCCCC2)CC1	-7
COc1ccc(-n2c(NC(=O)c3ccc(Br)o3)c(C#N)c3nc4ccccc4nc32)cc1	-7
C[C@@H](C(=O)Nc1ccc2ccccc2c1)[C@H]1C[C@]1(C)[C@H](NP(=O)(c1ccccc1)c1ccccc1)c1ccccc1	0
O=C(NNc1nc(N2CCOCC2)nc(N2CCOCC2)n1)Nc1ccc(Cl)cc1	2
O=S(=O)(NCC1CN(S(=O)(=O)c2c(F)cccc2F)C1)c1ccc2c(c1)OCCO2	15
O=C(NS(=O)(=O)c1ccccc1Cl)c1ccc[nH]1	5

Bioassay records from PubChem.
